# PV pol inh: poliovirus RdRp elongation inhibitors, primary screen, biochemical, fluorescence polarization, total intensity. poliovirus polymerase elongation; active compounds read low. Genome polyprotein (Poliovirus type 1 (strain Mahoney)), P03300. % elongation, % (compound at 16.7 µg/mL). 150,000 compounds, 0.66% hits; in the data active means % elongation below about 90%; further: some results filed as inactive read as strong as hits
# MbtI inh: MbtI salicylate synthase inhibitors, primary screen, biochemical, fluorescence intensity; P9WFX0; purified MbtI enzyme, fluorescence intensity read-out; inhibition, %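 (about 17 µg/mL by stock and volumes)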; 100,000 compounds, 0.89% hits; AID 493033, 2011;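 active means above 50% in both replicates, above 80% if mildly self-fluorescent; inactive means the rest, strongly fluorescent compounds included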;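 further: 0% = mean of negative and 100% = mean of positive controls; one replicate is shown; some compounds called inactive have numbers as strong as hits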
# Target sequence (P9WFX0 whole entry, looked up): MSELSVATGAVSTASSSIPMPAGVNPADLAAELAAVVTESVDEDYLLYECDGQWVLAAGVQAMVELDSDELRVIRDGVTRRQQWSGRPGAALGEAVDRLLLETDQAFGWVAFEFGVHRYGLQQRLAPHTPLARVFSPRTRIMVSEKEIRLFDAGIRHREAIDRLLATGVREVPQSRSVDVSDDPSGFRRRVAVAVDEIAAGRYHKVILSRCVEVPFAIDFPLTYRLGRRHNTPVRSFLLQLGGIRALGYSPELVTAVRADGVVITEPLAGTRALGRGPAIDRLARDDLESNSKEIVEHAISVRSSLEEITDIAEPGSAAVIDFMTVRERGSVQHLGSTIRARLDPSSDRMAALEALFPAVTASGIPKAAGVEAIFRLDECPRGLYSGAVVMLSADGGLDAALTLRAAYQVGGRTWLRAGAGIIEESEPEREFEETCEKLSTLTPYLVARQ
# MenB inh: M. tuberculosis MenB inhibitors, primary screen, biochemical, absorbance | AID 540299, 2011 | inhibition, %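 (about 12 µg/mL by stock and volumes)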 | MenB enzyme assay, absorbance read-out; some hits fall short of the stated cut | 1,4-dihydroxy-2-naphthoyl-CoA synthase (Mycobacterium tuberculosis (strain ATCC 25618 / … | 100,000 compounds, 0.43% hits;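 active means mean of two replicates above 30%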;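 further: 0% = no compound and 100% = wells with inactive enzyme; the first replicate is given; strong numbers were not always called active; inactives centre near -10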
# PV pol inh intensity: recorded beside PV pol inh, whose call it bears; % elongation; measured here: total intensity read-out; formula for this scale not given here;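 total fluorescence in place of polarization; lower means less elongation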
# Numbers without * were called inactive; nt = no result given.
no.	molecule	PV pol inh	PV pol inh intensity
1	Clc1ccc2nc(N3CCc4ccccc43)c3nncn3c2c1	101	103
2	COCCCn1c(OC(=O)N(C)C)c(C)c(C)nc1=S	103	96
3	CCOc1cc(CNC2CCN(Cc3ccccc3)C2)ccc1OCC(=O)N(C)C (configuration not stated)	101	100
4	Cc1cc(C)c2c(-n3cccc3)nn(Cc3ccc(C(=O)N4CCCC4)cc3)c2n1	102	102
5	COc1cc2c(cc1OC)C(COc1cc(C)cc(C)c1)N(C(=O)Cc1cccs1)CC2 (configuration not stated)	100	103
6	CC(=O)OC(C)(C)C(=O)/C=C/c1ccccc1	101	101
7	Cc1ccc(C(=O)Nc2c3c(nn2-c2ccccc2)CSC3)cc1	99	100
8	CN(C)c1ccc(C(=O)OCc2cc(=O)oc3cc(O)ccc23)cc1	102	95
9	CN1CCN(CC(O)COC(C(F)(F)F)C(F)(F)F)CC1 (configuration not stated)	101	107
10	Cc1nn(CC(=O)O)c2c1C1C(C2)C1(C)C (configuration not stated)	102	102

no.	MbtI inh	MenB inh
1	3	-19
2	12	5
3	-5	0
4	-111	2
5	-3	-8
6	25	5
7	4	-19
8	-183	4
9	-2	5
10	-17	-9

# (cont.)
no.	molecule	PV pol inh	PV pol inh intensity
11	C=C(C)C(=O)Nc1cc(NC(=O)C(=C)C)cc(C(=O)O)c1	101	103
12	O=S1(=O)CCC(N(S(=O)(=O)c2ccc(F)cc2)S(=O)(=O)c2ccc(Cl)cc2)C1 (configuration not stated)	105	110
13	c1ccc(CSc2nnc3ccc(-c4ccc5c(c4)OCO5)nn23)nc1	106	103
14	COc1ccc(NC(=O)Nc2ccc(OC)c(OC3CCCC3)c2)cc1OC1CCCC1	102	106
15	Cc1cc(C(=O)CSc2nncn2C)c(C)n1CC1COc2ccccc2O1 (configuration not stated)	109	114
16	COc1nc(C)[nH]c(=O)c1N	108	105
17	O=C(Nc1ccc2c(c1)ncn2C1CCCCC1)c1cc2ccccc2o1	101	95
18	N#CC(C(N)=O)=C1CCCCC1	98	108
19	COc1ccccc1-c1nn2c(C)nnc2s1	102	103
20	O=C(CN1C(=O)C2(OCCCO2)c2ccccc21)NCCc1ccccc1	101	103

no.	MbtI inh	MenB inh
11	-4	-44
12	nt	-8
13	20	-7
14	-2	-1
15	2	-10
16	-9	-20
17	nt	-15
18	-3	0
19	95	4
20	-8	3

# Next section.
no.	molecule	PV pol inh	PV pol inh intensity
21	COc1ccc2c(c1)c1c(c(=O)n(Cc3ccccc3)c(=O)n1C)n2C	106	103
22	C=CCn1c(SCC(=O)O)nnc1-c1ccc2c(c1)OCO2	104	106
23	Cc1nn(C)cc1CN1CCN(C(=S)NCCc2ccccc2)CC1	101	101
24	CCOC(=O)c1ccc2c(c1)C(=O)N(C1CCCCC1)C2=O	103	107
25	C/C(Cc1nc2ccccc2[nH]1)=N/NC(=O)c1ccccc1	104	99
26	COc1ccc(NC(=O)c2ccc(O)cc2)cc1	103	103
27	CCOC(=O)C1CCCN(S(=O)(=O)c2ccc(-c3ccc(=O)[nH]n3)s2)C1 (configuration not stated)	101	104
28	CC(C)(C)NC(=O)N1CCN(c2cc(C(F)(F)F)ccn2)CC1	101	98
29	O=C1CN(C(=O)c2ccc3c(c2)OCO3)c2ccccc2N1	103	102
30	O=C(c1ccc2nc(N3CCOCC3)sc2c1)N1CCCC1	101	102

no.	MbtI inh	MenB inh
21	48	-10
22	-14	-37
23	4	-16
24	-3	-6
25	-13	-134
26	12	nt
27	-4	-3
28	-5	-14
29	-23	-23
30	1	-12

# The list continues:
no.	molecule	PV pol inh	PV pol inh intensity
31	CCCC(=O)N(c1cccc(Cl)c1)C1C=CS(=O)(=O)C1 (configuration not stated)	100	102
32	CNC(=S)N1CCc2ccccc2C1	101	103
33	Cc1c(C(=O)N2CCC3(CC2)OCCO3)sc2nc(-c3ccccc3)cn12	102	97
34	Oc1c(C(c2ccccc2Cl)N2CCCCC2)ccc2cccnc12 (configuration not stated)	100	94
35	CCCc1nc2ccccc2c(C(=O)OCC(=O)NC2CC2)c1CC	98	95
36	CC(C)NC(=O)c1ccccc1CCc1ccccc1	98	100
37	O=S(=O)(N/N=C/c1ccsc1)c1ccc(Cl)s1	106	102
38	COc1ccc(S(=O)(=O)c2cn(C)c3ccccc3c2=O)cc1	98	103
39	CC1=C(C(=O)N2CCCCC2)C(c2ccc(N(C)C)cc2)C2=C(CCCC2=O)N1 (configuration not stated)	101	102
40	CCOC(=O)N1CCC(NC(=O)CSc2cc(C)nc3c(-c4ccccc4OC)c(C)nn23)CC1	103	103
41	CC(C)NC(=O)C1CC(=O)N(Cc2ccccc2)C1 (configuration not stated)	105	107

no.	MbtI inh	MenB inh
31	-15	-9
32	-8	7
33	-2	-19
34	-2	-70
35	-3	nt
36	nt	5
37	15	-9
38	5	-21
39	11	-16
40	-8	-34
41	-5	10

# Among those listed so far, these have a carbonyl joined to an NH by a bond outside any ring:
no.	molecule	PV pol inh	PV pol inh intensity
7	Cc1ccc(C(=O)Nc2c3c(nn2-c2ccccc2)CSC3)cc1	99	100
11	C=C(C)C(=O)Nc1cc(NC(=O)C(=C)C)cc(C(=O)O)c1	101	103
14	COc1ccc(NC(=O)Nc2ccc(OC)c(OC3CCCC3)c2)cc1OC1CCCC1	102	106
17	O=C(Nc1ccc2c(c1)ncn2C1CCCCC1)c1cc2ccccc2o1	101	95
18	N#CC(C(N)=O)=C1CCCCC1	98	108
20	O=C(CN1C(=O)C2(OCCCO2)c2ccccc21)NCCc1ccccc1	101	103
25	C/C(Cc1nc2ccccc2[nH]1)=N/NC(=O)c1ccccc1	104	99
26	COc1ccc(NC(=O)c2ccc(O)cc2)cc1	103	103
28	CC(C)(C)NC(=O)N1CCN(c2cc(C(F)(F)F)ccn2)CC1	101	98
35	CCCc1nc2ccccc2c(C(=O)OCC(=O)NC2CC2)c1CC	98	95
36	CC(C)NC(=O)c1ccccc1CCc1ccccc1	98	100
40	CCOC(=O)N1CCC(NC(=O)CSc2cc(C)nc3c(-c4ccccc4OC)c(C)nn23)CC1	103	103

no.	MbtI inh	MenB inh
7	4	-19
11	-4	-44
14	-2	-1
17	nt	-15
18	-3	0
20	-8	3
25	-13	-134
26	12	nt
28	-5	-14
35	-3	nt
36	nt	5
40	-8	-34

no.	molecule	PV pol inh	PV pol inh intensity
41	CC(C)NC(=O)C1CC(=O)N(Cc2ccccc2)C1 (configuration not stated)	105	107

no.	MbtI inh	MenB inh
41	-5	10

# The order is random, and some 1.7% of all compounds hit somewhere here.
